Rango release inh: prevents RanGTP from dissociating the Rango-importin beta complex | O95149+P62826 | Biochemical FRET Rango-importin beta, RanGTP-induced dissociation | Potency, µM (highest dose often 46.1 µM), for inactives: at the highest dose activity change, negative = inhibition | actives 0.071% (n = 340,000) | AID 540253; active means falling FRET ratio curve, often poorly fitted, with flat reads before Ran was added; inconclusive means other falling curves, or compound fluorescence or quenching; inactive means flat or rising ratio curve;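 note: potency is the fitted concentration of half-maximal effect; % of control where 0% means no effect; nearly all actives have a fitted effect of over 45% in size; -100% = wells without RanGTP and RCC1; the record marks most hits as doubtful in a second field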
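FRET read at 45 min, room temperature: inhibitors block the CFP/YFP signal rise when RanGTP (0.6 uM Ran, 2 mM GTP, 0.2 uM RCC1) frees Rango (0.1 uM) from importin beta (0.25 uM). Pre-read after 5 min compound exposure flags interference.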
Rango complex inh: Rango-importin beta binding inhibition. Q14974. Potency, µM (doses to about 92.2 µM), for inactives: at the highest dose inhibition of complex formation. actives 0.031% (n = 340,000). Rango CFP/YFP FRET sensor + importin beta, 45 min. AID 540263; active = rising FRET ratio curve, often small or poorly fitted; inconclusive = mostly compound fluorescence or quenching in the first reads; inactive = flat curves in all reads;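 note: potency is the fitted concentration of half-maximal effect; 0% = DMSO wells and 100% = buffer wells lacking importin beta; nearly all actives have a fitted effect of over 15% in size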
Target sequence (Q14974 whole entry, looked up): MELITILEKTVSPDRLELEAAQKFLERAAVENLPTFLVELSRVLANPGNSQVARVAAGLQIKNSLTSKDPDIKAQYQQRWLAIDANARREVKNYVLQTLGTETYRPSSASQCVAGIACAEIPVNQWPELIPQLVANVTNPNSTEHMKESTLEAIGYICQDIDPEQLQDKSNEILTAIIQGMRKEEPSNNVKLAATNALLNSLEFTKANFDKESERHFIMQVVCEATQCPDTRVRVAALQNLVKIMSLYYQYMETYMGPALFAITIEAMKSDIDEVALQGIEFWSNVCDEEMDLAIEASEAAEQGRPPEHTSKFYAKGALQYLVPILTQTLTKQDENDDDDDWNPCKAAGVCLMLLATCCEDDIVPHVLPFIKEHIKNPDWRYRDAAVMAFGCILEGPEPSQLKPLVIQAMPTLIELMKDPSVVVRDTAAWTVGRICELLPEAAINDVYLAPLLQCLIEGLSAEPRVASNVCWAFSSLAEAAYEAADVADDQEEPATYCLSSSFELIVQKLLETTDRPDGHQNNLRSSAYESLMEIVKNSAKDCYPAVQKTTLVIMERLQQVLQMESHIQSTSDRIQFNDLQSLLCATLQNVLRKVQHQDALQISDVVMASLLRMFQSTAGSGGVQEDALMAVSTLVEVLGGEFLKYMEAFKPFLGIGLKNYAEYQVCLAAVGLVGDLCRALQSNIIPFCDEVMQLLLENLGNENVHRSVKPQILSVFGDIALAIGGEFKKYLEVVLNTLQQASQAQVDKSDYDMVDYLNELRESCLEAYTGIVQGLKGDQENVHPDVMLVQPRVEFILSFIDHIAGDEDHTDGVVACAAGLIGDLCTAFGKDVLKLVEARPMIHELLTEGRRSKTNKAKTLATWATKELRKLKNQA
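FRET biosensor (snurportin 1 IBB flanked by EYFP and cerulean), 50 nM, with compound 5 min, then 0.125 microM importin beta in PBS, 1 mM DTT, 0.02% Tween-20, 0.1% BSA. CFP/YFP ratio read after 45 min at room temperature; pre-read flags interference.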
miR-21 FLuc: raises the signal of a miR-21 reporter; HeLa miR-21 FLuc reporter, luciferase, 48 h; AID 2288; 340,000 tested, under 10 active; Potency, µM (series often up to 38.3 µM), for the others: at the top dose reporter change, positive = more light; active = well fitted rising curve with a large enough effect; inconclusive = small, poorly fitted or top-dose-only effect; inactive = no such curve, though single readings can be large or run the other way;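 note: % of control where 0% means no effect; miR-21 action dims this reporter so a rising signal means less miR-21 action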
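HeLa cells stably expressing CMV-driven firefly luciferase with a downstream miR-21 binding sequence, endogenously expressing miR-21, were treated with titrations (up to about 40uM final) for 48 hours at 37 degree Celsius. Luciferase luminescence was read after lysis.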
GLA inh pH 4.5: blocks human alpha-galactosidase A at pH 4.5; purified enzyme, 4-MU-alpha-Gal fluorescence, pH 4.5; 230,000 tested, under 10 active; activity change, negative = inhibition, % at 105 µM; inconclusive = small, poorly fitted or top-dose-only inhibition, or a rising curve; inactive = flat fitted curve, though single readings scatter; no compound was filed as active;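 note: 0% = full activity with enzyme and -100% = basal without enzyme; dose as in the result columns while the protocol names 77 µM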
Numbers without * were called inactive; ? = inconclusive; / = not tested or not shown; & = joins results of further samples. This is a subset; rates above refer to the full screens.

The line under a structure holds: Rango release inh | Rango complex inh | miR-21 FLuc | GLA inh pH 4.5
#1 Cn1c2ccccc2c2cnn(CC(=O)Nc3ccccc3Br)c(=O)c21
    10.8% | -0.1% | -0.2% | 4.5
#2 COCCCNC(=S)N1CCCN(c2nc3cc(C)c(C)cc3cc2C#N)CC1
    ? | ? | -4.1% | -7.2
#3 COc1ccc(Br)cc1C1N2CC3(C)CN1CC(C)(C2)C3=O (configuration not stated)
    6.7% | -1.7% | -0.7% | 8.0
#4 Cc1cc(C)cc(NCc2cc(=O)oc3cc(C)c(O)cc23)c1
    -1.9% | 0.9% | 2.2% | /
#5 CC1=NN(C(=O)c2cc(C)nn2C)C(O)(C(F)(F)F)C1 (configuration not stated)
    -22.9% | -1.8% | -5.6% | 4.6
#6 Cc1nnc(-c2cnn(C)c2N)n1Cc1ccccc1
    -13.6% | -2.0% | -3.1% | -1.2
#7 O=C(COC(=O)COc1ccc(Cl)cc1Cl)NC1CCCC1
    -5.9% | -0.9% | / | /
#8 Cn1c(SCC(=O)Nc2nncs2)nnc1C1CC1
    4.2% | -0.8% | 0.5% | /
#9 Cc1cc(C)cc(C(=O)NCC(=O)OCC(=O)N2CCCCC2)c1
    -5.2% | 0.5% | 1.3% | -3.5
#10 CCC(=O)Nc1cccc(-c2ccc(N3CCCCC3)nn2)c1
    17.3% | -0.6% | 10.2% | /
#11 COC(=O)c1ccc2c(=O)[nH]c(COC(=O)c3[nH]c(C)c(C(C)=O)c3C)nc2c1
    0.7% | -1.7% | / | /
#12 OCCC1CN(Cc2cccn2-c2cccnc2)CCN1Cc1ccccc1 (configuration not stated)
    0.6% | -2.3% | -5.4% | -1.5
#13 CCCn1nc2cc(C(=O)NCc3ccccc3OC)ccc2c1OCC
    -1.2% | 1.4% | -9.3% | -26.7
#14 CCc1ccc(NC(=O)c2cc(-c3cccs3)on2)cc1
    -0.2% | 1.1% | -49.5%&-55.1% | -0.7
#15 O=C(NCCCN1CCCC1=O)c1cc(NS(=O)(=O)c2ccc(F)cc2)cc(NS(=O)(=O)c2ccc(F)cc2)c1
    7.3% | -0.8% | 1.0% | -0.4
#16 Cn1cc(C(=O)N/N=C/c2cc(Br)cs2)c2ccccc21
    / | / | -3.3% | 0.2
#17 O=C(COc1ncnc2ccccc12)N1CCN(c2ccccc2)CC1
    -0.4% | -2.6% | -3.9% | 2.1
#18 Cc1[nH]nc(C(F)(F)F)c1CCC(=O)NC1CCCCCC1
    3.3% | -3.2% | / | /
#19 COc1ccc(OCCCC(=O)OCC(=O)N2CCN(S(=O)(=O)c3ccc(C)cc3C)CC2)cc1
    -6.7% | 0.5% | / | /
#20 O=C(CSC1=NC(=O)C(c2ccccc2)C(=O)N1)Nc1cccc(Cl)c1 (configuration not stated)
    3.9% | 0.6% | 6.9% | -0.2

Arranged by length of the SMILES (lowest first): some entries from above
The line under a structure holds: Rango release inh | Rango complex inh | miR-21 FLuc | GLA inh pH 4.5
#6 Cc1nnc(-c2cnn(C)c2N)n1Cc1ccccc1
    -13.6% | -2.0% | -3.1% | -1.2
#7 O=C(COC(=O)COc1ccc(Cl)cc1Cl)NC1CCCC1
    -5.9% | -0.9% | / | /
#16 Cn1cc(C(=O)N/N=C/c2cc(Br)cs2)c2ccccc21
    / | / | -3.3% | 0.2
#17 O=C(COc1ncnc2ccccc12)N1CCN(c2ccccc2)CC1
    -0.4% | -2.6% | -3.9% | 2.1
#5 CC1=NN(C(=O)c2cc(C)nn2C)C(O)(C(F)(F)F)C1 (configuration not stated)
    -22.9% | -1.8% | -5.6% | 4.6
#9 Cc1cc(C)cc(C(=O)NCC(=O)OCC(=O)N2CCCCC2)c1
    -5.2% | 0.5% | 1.3% | -3.5
#1 Cn1c2ccccc2c2cnn(CC(=O)Nc3ccccc3Br)c(=O)c21
    10.8% | -0.1% | -0.2% | 4.5
#2 COCCCNC(=S)N1CCCN(c2nc3cc(C)c(C)cc3cc2C#N)CC1
    ? | ? | -4.1% | -7.2
#11 COC(=O)c1ccc2c(=O)[nH]c(COC(=O)c3[nH]c(C)c(C(C)=O)c3C)nc2c1
    0.7% | -1.7% | / | /
#15 O=C(NCCCN1CCCC1=O)c1cc(NS(=O)(=O)c2ccc(F)cc2)cc(NS(=O)(=O)c2ccc(F)cc2)c1
    7.3% | -0.8% | 1.0% | -0.4

Continued:
The line under a structure holds: Rango release inh | Rango complex inh | miR-21 FLuc | GLA inh pH 4.5
#21 CN1C(=O)S/C(=C/c2cccn2-c2cccc(C(=O)O)c2)C1=O
    0.0% | 0.3% | -8.6% | 4.6
#22 CCN1CCN(S(=O)(=O)c2ccc3[nH]c(=O)oc3c2)CC1
    -4.6% | 0.0% | -0.8% | -2.1
#23 N#Cc1nc(COc2cccc(Cl)c2)oc1NCc1ccco1
    ? | ? | -53.4% | -4.0
#24 COCc1cc(C)nc2sc(C(=O)Nc3cccc(OC)c3)c(N)c12
    ? | ? | -74.5% | /
#25 Cc1ccc(-c2csc3nc(CSc4nnc(-c5ccc(Cl)cc5)n4C)[nH]c(=O)c23)cc1
    -13.4% | 0.3% | -1.5% | -19.6
#26 Cc1nn(C)c(C(=O)Nc2ccc(Cl)c([N+](=O)[O-])c2)c1Cl
    7.7% | -2.5% | -4.7% | 1.2
#27 O=C(O)/C=C/c1cn(-c2ccccc2)nc1-c1ccc(-c2ccc([N+](=O)[O-])cc2)o1
    ? | ? | -5.0% | -1.2
#28 CCN(CC)c1ccc(CNc2nc3ccccc3n2CCN2CCCCC2)cc1
    0.7% | 3.5% | ? | ?
#29 CCO/C=C/C(=O)N(C)CCC#N
    1.7% | 0.1% | -0.1% | -9.4
#30 CCCCn1nc(C(=O)Nc2c(C)n(C)n(-c3ccccc3)c2=O)c2ccccc2c1=O
    0.0% | -0.5% | / | /
#31 Cc1ccc(S(=O)(=O)Cc2cc(F)c([N+](=O)[O-])cc2[N+](=O)[O-])cc1
    10.7% | -1.3% | ? | /
#32 CC(C)c1ccc(NC(=O)C2CC(=O)N=C(N)S2)cc1 (configuration not stated)
    0.5% | -1.3% | -7.5% | -11.3
#33 CCOc1ccc(S(=O)(=O)N2CCN(c3ccccc3OC)CC2)c2cccnc12
    -22.5% | -4.6% | -10.5% | -1.6
#34 CC1(C)CC(=O)C2=C(C1)Nc1cc(C(=O)c3ccccc3)ccc1NC2c1ccccn1 (configuration not stated)
    -11.0% | 3.6% | -14.8% | -5.7
#35 CCOC(=O)CN(C(=O)CNC(=O)c1ccco1)C(C(=O)NC1CCCCC1)c1cccnc1 (configuration not stated)
    1.9% | 3.0% | -3.2% | /
#36 S=c1nc[nH]c2c1cnn2-c1ccccc1
    -14.8% | 2.4% | -21.3% | -0.8
#37 CC(CNC(=O)CN1C(=O)NC2(CCOc3ccccc32)C1=O)c1ccccc1 (configuration not stated)
    ? | -2.9% | / | /
#38 Cc1ccc(N=C2NC(=O)/C(=C/c3cccs3)S2)cc1C
    -4.8% | ? | -18.4% | -9.9
#39 COc1ccc(C(=O)COC(=O)CN2C(=O)C3CC=CCC3C2=O)c(OC)c1 (configuration not stated)
    -0.9% | 0.1% | / | /
#40 CCOC(=O)c1c(-c2ccc(OC)cc2)csc1NC(=O)CCN1CCOCC1
    3.3% | 1.0% | -0.6% | -6.5

Carrying on:
The line under a structure holds: Rango release inh | Rango complex inh | miR-21 FLuc | GLA inh pH 4.5
#41 CC(C)c1cc(C(=O)N2CCCC(Nc3ccc(F)c(F)c3)C2)nc(N)n1 (configuration not stated)
    7.6% | 0.0% | -1.1% | /
#42 CS(=O)(=O)N(CC(=O)NCC1CCCO1)c1cc(Cl)ccc1Cl (configuration not stated)
    1.9% | -0.6% | -0.2% | 2.0
#43 CCOc1ccc(C2C=C(c3ccc(F)cc3)Nc3ncnn32)cc1 (configuration not stated)
    ? | ? | -9.6% | 5.1
#44 Cc1ccccc1C(=O)N1CCC(C(=O)Nc2ccc(C(C)C)cc2)CC1
    5.4% | -7.4% | 28.0% | /
#45 O=C(COC(=O)c1cccnc1Cl)c1ccc(Cl)cc1Cl
    14.6% | 2.5% | -4.0% | -2.6
#46 CC(=O)c1ccc(N2CCN(C(=O)[C@H](C)NC(=O)c3ccccc3Cl)CC2)cc1
    -13.3% | -0.6% | -7.9% | /
#47 Cc1oc(-c2ccccc2F)nc1CN1CCC(C(=O)NC2CCCCCCC2)CC1
    -0.1% | -1.2% | -1.5% | -0.9
#48 Cc1ccc(S(=O)(=O)N2CCN(C(=O)NCc3ccc(F)cc3)CC2)c(C)c1
    -9.4% | 2.3% | 0.1% | /
#49 CN(C(=O)CSc1nnc(Cc2ccccc2F)n1N)C1CCS(=O)(=O)C1 (configuration not stated)
    -10.1% | 7.4% | -6.2% | -17.4
#50 Cc1ccc(S(=O)(=O)N2CCCC(NC(=O)N3CCN(c4ccccc4)CC3)C2)cc1 (configuration not stated)
    8.2% | 2.0% | -8.8% | -4.8
#51 Cc1ccc(-c2cc(C(=O)OCC(=O)N(C)c3c(N)n(Cc4ccccc4)c(=O)[nH]c3=O)c3ccccc3n2)o1
    ? | ? | / | /
#52 CCOc1ccc(N(CC(=O)NCc2ccccc2Cl)S(=O)(=O)c2c(C)noc2C)cc1
    -8.6% | -2.1% | -6.4% | /
#53 Cc1ccc(C(OC(=O)c2ccco2)C(=O)NCc2cccs2)cc1 (configuration not stated)
    1.0% | -0.7% | -4.0% | 0.9
#54 COc1ccc(-n2cnnc2SCC(=O)NCc2cccs2)cc1
    5.7% | -1.0% | -0.5% | 1.8
#55 Cc1nc(C(=O)N2CCC(n3nccc3NC(=O)Nc3ccccc3Cl)CC2)cs1
    -4.4% | -0.6% | -0.9% | /
#56 O=C(CC(c1ccc(F)cc1)c1ccco1)N1CCOCC1 (configuration not stated)
    -12.7% | 0.0% | -8.6% | 13.8
#57 COc1cc(NS(=O)(=O)c2cc3[nH]c(=O)c(=O)[nH]c3cc2C)cc(OC)c1OC
    -18.6% | -2.6% | 1.5% | /
#58 CCCCC(C(=O)NC(=O)NCc1ccccc1)N1C(=O)c2ccccc2C1=O (configuration not stated)
    5.5% | -2.3% | 0.8% | -7.3
#59 CCSc1nnc(NC(=O)CSc2nnc(CNC(=O)c3ccc(OC)cc3)o2)s1
    0.5% | -2.0% | 0.4% | 2.5
#60 CC(C)(C)n1nnnc1CN1CCSCC1
    -21.4% | 6.8% | -0.6% | 2.4

Other compounds follow:
The line under a structure holds: Rango release inh | Rango complex inh | miR-21 FLuc | GLA inh pH 4.5
#61 COc1ccc(OC)c(CNC(=O)c2ccc(C)c(NC(=O)C3=C(C)OCCS3)c2)c1
    16.4% | 2.2% | -10.7% | /
#62 CC(=O)C1CCC2C3CCC4CC(=O)CCC4(C)C3C(C)(O)CC12C (configuration not stated)
    -8.2% | -0.7% | / | /
#63 Cc1ccc(OCc2ccc(C(=O)Nc3nc4ccccc4n3Cc3ccccc3)o2)c([N+](=O)[O-])c1
    0.9% | -0.1% | 0.2% | 0.3
#64 COc1ccc(C2C(C(=O)N3CCCCC3)CC(=O)N2c2ccc(OC)cc2)cc1 (configuration not stated)
    -20.8% | 0.1% | -3.1% | -8.7
#65 Cc1nn(CC(=O)O)c(C)c1[N+](=O)[O-]
    0.2% | 1.2% | 0.1% | 0.5
#66 S=C(NNc1ccnc2cc(Cl)ccc12)Nc1ccc(Cl)cc1Cl
    -20.8% | -2.9% | 7.4% | 4.0
#67 O=C(Nc1ccc(O)cc1)c1cc(S(=O)(=O)N2CCCC2)ccc1Cl
    13.2% | -1.4% | 8.9% | -1.9
#68 CCOC(=O)c1cccc(NC(=O)CSc2nc3ccccc3c(=O)n2CCOC)c1
    -4.8% | -0.1% | 0.0% | 0.1
#69 C=CCSc1nnc2c(n1)OC=Nc1ccc(Br)cc1-2
    1.6% | 2.6% | -0.2% | -3.3
#70 CC(C)(CNCc1ccccc1)NS(=O)(=O)c1ccccc1
    -2.2% | -1.3% | / | /
#71 O=C(NC1CC1)C1CC(=O)N(C2CCCCC2)C1 (configuration not stated)
    0.1% | 1.2% | -4.4% | -3.0
#72 O=C(NC(=S)NCC1CCCO1)c1cccs1 (configuration not stated)
    -4.4% | -0.3% | -26.4% | -4.8

Copied from the list.
CC(C)(CNCc1ccccc1)NS(=O)(=O)c1ccccc1 – Rango release inh: -2.2%
O=C(NC1CC1)C1CC(=O)N(C2CCCCC2)C1 (configuration not stated) – Rango complex inh: 1.2%

Bioassay records: PubChem, National Center for Advancing Translational Sciences (NCATS)
